Rce1 inh – inhibitors of yeast Ras-converting enzyme | yeast membranes, quenched prenylated peptide cleavage fluorescence | calls only | 290,000 compounds, 0.27% hits | AID 2563;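 active means fall in fluorescence gain of 50% or more versus controls, with final raw signal at or below 3038400; inconclusive means same 50% fall but final raw signal above 3038400; inactive means fall in fluorescence gain under 50%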;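 further: plate controls were neutral control wells for no effect and wells lacking membranes for full effect; tested at 10 µM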
Target sequence (Q03530 whole entry, looked up): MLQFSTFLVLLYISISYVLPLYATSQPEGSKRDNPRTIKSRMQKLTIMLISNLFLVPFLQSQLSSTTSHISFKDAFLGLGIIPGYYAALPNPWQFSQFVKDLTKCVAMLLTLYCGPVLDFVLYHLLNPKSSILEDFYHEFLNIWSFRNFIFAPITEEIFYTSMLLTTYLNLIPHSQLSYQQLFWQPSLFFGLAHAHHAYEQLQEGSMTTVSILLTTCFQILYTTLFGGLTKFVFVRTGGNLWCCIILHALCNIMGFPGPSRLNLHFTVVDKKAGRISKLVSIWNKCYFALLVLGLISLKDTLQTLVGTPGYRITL
CSC inhib – blocks cancer stem cells | 300,000 compounds, 1.1% hits | cancer stem cell-like cells viability, luminescence | inhibition, % at 7.5 µM | AID 2717;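 active means mean at 75% or more and at least half the replicates too; inconclusive means mean and replicates disagree; tested in HMLE shEcad cells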;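 further: 0% = median of negative and 100% = median of positive control wells; the first replicate is given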
eIF4H inh – inhibitors of RNA binding by human eIF4H | eIF4H fluorescence polarization binding assay | inhibition, % at 35 µM | Q15056 | 290,000 compounds, 0.94% hits;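 active means 50% or more with normal probe brightness, or confirmed in later tests; inconclusive means above 50% with abnormal brightness, or retests that disagree; inactive means below 50% or failed in later tests; about a fifth of its hits are not listed in these tables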;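 further: calls also rest on retests at 20 µM and on dose response follow-up; 0% = protein and probe with vehicle and 100% = probe without protein; strong numbers were not always called active; many hits fall short of the cut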
Env fusion inh – inhibitors of HIV Env-mediated cell fusion | HeLa-JRFL Env/CEM21 cell fusion, luciferase | inhibition, % at 12.3 µM | 360,000 compounds, 1.1% hits | AID 651610;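 active means mean replicate inhibition score of at least 50 and every replicate individually at or above 50; inconclusive means only one of the two criteria met; inactive means mean below 50 and not all replicates reaching 50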;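 further: 0% = plate neutral controls and 100% = maraviroc near 300 nM; one replicate is shown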
MT1-MMP act inh – blocks activation of human MT1-MMP; GFP/RFP ratio change, % at 20 µM; 360,000 compounds, 0.061% hits; HT1080 RFP-PRO-GFP cells, GFP/RFP ratio fluorescence, overnight; percent of plate control window, DMSO zero; AID 651647; P50281;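 active means GFP/RFP ratio change of at least 30% with cell ATP level not reduced by more than half and red fluorescence within 50% of control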; further: strong numbers were not always called active
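Compound: 20 µM single dose, 1% DMSO / System: HT1080 RFP-PRO-GFP cells / Controls: DMSO and RFP-L50D-GFP cell wells / Read-out basis: GFP/RFP fluorescence ratio / Schedule: overnight compound exposure at 37 °C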
PABP FP inh – blocks human PABP binding to poly(A) RNA; P11940; fluorescence polarization; inhibition, % at 35 µM; 290,000 compounds, 1% hits; AID 2014;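 active means 50% or more with normal probe brightness, or confirmed in later tests; inconclusive means above 50% with abnormal brightness, or retests that disagree; inactive means below 50% or failed in later tests; about a fifth of its hits are not listed in these tables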;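 further: calls also rest on retests at 20 µM and on dose response follow-up; controls were probe without protein and protein plus probe with vehicle; some compounds called inactive have numbers as strong as hits; many hits fall short of the cut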
Target sequence (P11940 whole entry, looked up): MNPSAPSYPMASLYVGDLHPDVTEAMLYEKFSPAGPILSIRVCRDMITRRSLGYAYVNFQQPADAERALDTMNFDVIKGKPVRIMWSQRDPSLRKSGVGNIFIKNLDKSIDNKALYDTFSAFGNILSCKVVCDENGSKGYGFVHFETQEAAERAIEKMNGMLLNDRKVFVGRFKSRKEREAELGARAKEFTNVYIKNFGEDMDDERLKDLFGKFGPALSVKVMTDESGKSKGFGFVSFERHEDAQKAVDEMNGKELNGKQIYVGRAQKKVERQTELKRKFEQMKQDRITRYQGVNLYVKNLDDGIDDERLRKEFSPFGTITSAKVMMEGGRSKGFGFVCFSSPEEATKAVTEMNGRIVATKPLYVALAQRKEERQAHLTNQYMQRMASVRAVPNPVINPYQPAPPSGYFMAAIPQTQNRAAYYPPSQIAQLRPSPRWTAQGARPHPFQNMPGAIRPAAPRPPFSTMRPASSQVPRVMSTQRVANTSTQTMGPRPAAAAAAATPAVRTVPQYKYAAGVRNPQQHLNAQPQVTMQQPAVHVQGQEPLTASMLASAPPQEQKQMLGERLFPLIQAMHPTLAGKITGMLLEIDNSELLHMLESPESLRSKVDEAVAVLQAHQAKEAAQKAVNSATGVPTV
UUG fidelity – alters start codon recognition fidelity in yeast; S. cerevisiae UUG-firefly luciferase reporter, luminescence/redox ratio; activity score, % at 18.7 µM; 350,000 compounds, 0.13% hits;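 active means replicate mean at a twofold rise or more, about +100% in these data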;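 further: firefly luciferase made from a UUG start codon reports start codon fidelity; reporter light over untreated wells divided by growth signal over untreated wells; some hits fall short of that in this replicate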
MT1-MMP act inh RFP – second read-out of MT1-MMP act inh, no call of its own (marks repeat the call); RFP signal change, %; measured here: RFP expression control read;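 0 = vehicle wells; hits needed this value within 50% of zero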
* marks the source's active call; other numbers are inactive results; i = inactive; ? = inconclusive; nt = not tested or not shown. A portion of the library; count on the stated rates, not on these rows.

SMILES	Rce1 inh	CSC inhib	eIF4H inh	Env fusion inh	MT1-MMP act inh	MT1-MMP act inh RFP	PABP FP inh	UUG fidelity
COc1ccc(CCNC(=O)COc2ccc(S(=O)(=O)NC3CCCCC3)cc2Cl)cc1	i	5	-10	nt	2	-12	-5	-25
CCN(CC(=O)NCc1ccc(Cl)cc1)C(=O)CCc1ccccc1O	i	-9	9	40	2	-2	-4	-6
Cc1ccc(S(=O)(=O)CCC(=O)c2cccc([N+](=O)[O-])c2)cc1	i	13	4	-8	0	5	-2	-8
COc1ccc(-c2c(C)nn3c(N)c(C#N)cnc23)cc1OC	i	12	-10	32	1	3	3	nt
c1ccc(COc2ccccc2CNc2nn[nH]n2)cc1	i	-13	13	-15	3	4	18	nt
Cc1ccc(-c2noc(CCC(=O)Nc3ccccc3C)n2)cc1	i	-10	-14	-52	6	-1	5	-9
COc1ccc(C2(CNC(=O)c3cc([N+](=O)[O-])cc([N+](=O)[O-])c3)CCCC2)cc1OC	i	-8	5	27	4	-4	9	nt
O=C(CN1C(=O)NC(Cc2ccccc2)(Cc2ccccc2)C1=O)NCC1CCCCC1	i	-14	-5	-23	-2	4	4	-15
Cc1ccc(C(=O)CCC(=O)Nc2cccc(C)c2)cc1	i	nt	11	-6	-1	3	2	-16
COCCCn1c(SCC(=O)NC2CCCC2)nnc1-c1ccco1	i	-1	-3	nt	6	1	3	nt
Cc1ccc(CSCC(=O)N2CCN(c3ccccc3)CC2)cc1	i	7	-3	4	0	3	2	nt
Nc1nc(=S)c2[nH]c(=S)[nH]c2[nH]1	nt	nt	nt	-18	2	1	nt	-10
CC(C)c1ccc(S(=O)(=O)N2CCN(C(=O)C3CCCC3)CC2)cc1	i	-11	-1	5	0	-4	-5	0
CCOc1ccccc1NC(=O)c1cc(S(=O)(=O)N2CCN(CC)CC2)ccc1Cl	i	0	-7	-13	2	-1	-5	-17
Cc1nc2c(OCc3ccc(Cl)cc3)cccn2c1N(C)Cc1cccs1	nt	nt	nt	4	26	-15	nt	-23
O=C(NC1CCN(Cc2ccc(Cl)cc2Cl)CC1)c1ccccc1	i	nt	-6	5	1	-7	-5	-1
Cc1cn([C@@H](CCCCN)C(=O)NCCCCCCCCCCC(=O)N2CCNCC2)nn1	i	-35	nt	15	2	4	nt	64
Cc1cccc(C)c1OCC(=O)NNC(=O)CCCn1c(=O)oc2ccccc21	nt	-6	nt	-5	2	0	nt	18
Cc1nc2ccccc2cc1C(=O)NCc1ccc(F)cc1	i	0	2	0	5	-10	-3	8
Cc1ccc(CNC(=O)Cn2nnc(C(=O)Nc3ccc(Br)cc3)c2N)cc1	i	-8	-6	6	-2	-5	-2	6
NC(=O)C(c1ccccc1)c1ncc(C(F)(F)F)cc1Cl (stereo not drawn)	i	4	-6	-139	-3	0	-8	-19
COC(=O)c1ccccc1Nc1ccccc1	nt	4	-12	-15	0	0	-3	-3
Cc1noc(C)c1Cn1c(C)c(C(=O)NCc2ccc3c(c2)OCCO3)sc1=O	nt	nt	nt	19	3	0	nt	-17
O=C(c1cccc(-n2cnnn2)c1)N1CC=C(c2ccccc2)CC1	i	-13	-10	-37	0	1	-2	-8
CN(C)CCOCCSc1ccc(Cl)cc1	i	-12	-7	nt	-1	-2	4	-7
CCOC(=O)N1CCN(C(=O)c2ccc(CSc3ccc(Cl)cc3)cc2)CC1	i	nt	-2	32	-3	-20	-4	nt
Cn1c(=O)[nH]c2cc3ccccc3cc21	i	0	-4	70*	-2	7	1	-6
O=C1N(C2CCCC2)C[C@@H]2C[C@@H](c3cccn3-c3ccccn3)N3CCC[C@@]123	i	-10	22	-3	-1	5	2	nt
COc1ccc(C)cc1S(=O)(=O)NCc1cccs1	i	-4	-17	2	-2	-3	-4	-5
CCN(CC)C(=O)C1(P(=O)(c2ccccc2)c2ccccc2)CCC1	i	-9	-2	21	0	3	-7	-12
Cc1ccc(-n2c(Cn3ncc4ccccc4c3=O)n[nH]c2=S)cc1	i	-18	-9	3	8	5	-2	nt
CC1(C)NC(=O)N(CC(O)CN2C(=O)CCC2=O)C1=O (stereo not drawn)	i	nt	1	2	2	0	8	3
O=C(NC(=S)NC(=O)c1ccccc1F)c1ccccc1F	i	-2	-8	nt	0	-1	-1	nt
Nn1c(SCC(=O)Nc2ccc(S(=O)(=O)N3CCCC3)cc2)nnc1C(F)(F)F	i	24	-3	nt	2	-2	-3	9
Cc1ccc2nc(Nc3ccccc3)c(C=O)c(=O)n2c1	i	-7	-11	-80	-4	-1	-8	8
CC(/C=C/c1ccc(C)o1)=C\C(=O)O	i	23	8	-29	-12	8	9	-15
c1ccc(-n2cnc3ccccc32)nc1	i	-4	-13	25	-10	-8	12	-20
COc1ccc(C)cc1NC(=O)C1CCN(C(=O)c2ccc(C(C)(C)C)cc2)CC1	i	nt	-5	-2	-1	-4	4	-7
COc1ccccc1NC(=O)c1ccc(-c2ccccc2F)o1	i	20	3	nt	-6	-4	-3	-11
CCn1cc(CN2CCC(n3nccc3NC(=O)c3cccc(F)c3)CC2)cn1	nt	0	-1	16	-2	3	7	-6
CCCc1nnc(NC(=O)CCC(=O)N2CCN(S(=O)(=O)c3ccc(F)cc3)CC2)s1	i	-10	-6	2	1	-1	-1	-11
CCOc1ccc(S(=O)(=O)N2CCN(C(=O)c3ccncc3)CC2)cc1	i	-7	-9	-5	1	-1	-2	-14
Cc1ccc(C(=O)OCC(=O)Nc2ccccc2)cc1NC(=O)c1ccco1	i	-9	4	-25	4	1	3	-12
COc1cc(SC)ccc1C(=O)N1CCN(c2ccc(O)cc2)CC1	i	26	-2	25	-3	0	10	-12
Cc1nn(CC(=O)N/N=C/c2cccs2)c(C)c1[N+](=O)[O-]	i	-10	10	3	0	2	15	nt
CCOC(=O)C1CCN(C(=O)COC(=O)C23CC4CC(CC(C4)C2)C3)CC1	nt	-6	nt	1	8	2	nt	-18
COc1ccc(CNC(=O)COC(=O)c2n[nH]c3ccccc23)cc1OC	nt	-8	1	38	4	-3	7	3
CCN(CC)C(=O)c1[nH]cnc1C(=O)N[C@@H](C)C(=O)OCc1ccccc1	i	nt	0	5	-1	3	-4	-9
CCc1ccc(-c2cc3c(=O)n(CC(=O)NCCCN4CCN(CC)CC4)nc(C)n3n2)cc1	i	50	-2	0	3	2	21	0
COc1ccc(NC(=O)CN2C(=O)COc3ccc(S(=O)(=O)N4CCCCCC4)cc32)cc1	i	9	-1	13	2	0	-3	-16
CCOC(=O)c1c(C)[nH]c(N=Nc2ccccc2)c1C	i	nt	-2	nt	1	-7	-6	-3
CCC(C)[C@H](NC(=O)C1CCN(C(=O)[C@H](Cc2ccccc2)NC(=O)OC(C)(C)C)CC1)C(=O)O (stereo partly drawn)	i	0	-2	-13	1	9	9	-2
NN=C1c2ccccc2-c2ccc(N)cc21	nt	nt	nt	4	6	0	nt	-20
CCn1c(=O)cc(OCC(=O)Nc2nc(C)cs2)c2ccccc21	i	-11	0	8	4	8	-13	-14
COc1ccc(NC(=O)c2cccc(N3C(=O)C4CCC(C)CC4C3=O)c2)c(OC)c1 (stereo not drawn)	i	-7	-12	-3	1	2	-2	-15
O=[N+]([O-])c1cccc(NC(=S)N2CCN(S(=O)(=O)c3ccccc3)CC2)c1	i	-3	-8	1	-3	-4	-6	10
O=C(CN1C(=O)NC2(CCCC2)C1=O)Nc1ccc(F)cc1	i	-3	2	4	-2	3	-13	-18
CCN(CC)c1ccc(N=Cc2cc(Br)ccc2O)cc1	i	-5	-7	18	15	13	-6	nt
Cc1ccccc1-c1nn(-c2ccc(F)cc2F)cc1CNCCCN(C)C	i	13	-1	10	3	3	9	nt
CCS(=O)(=O)c1cc([N+](=O)[O-])c(Sc2ccccc2N)s1	i	-7	28	-27	-8	5	12	-31
Going on with the list:
SMILES	Rce1 inh	CSC inhib	eIF4H inh	Env fusion inh	MT1-MMP act inh	MT1-MMP act inh RFP	PABP FP inh	UUG fidelity
O=[N+]([O-])c1cccc(S(=O)(=O)Nc2ccccn2)c1	nt	nt	nt	13	0	6	nt	0
O=C1c2cc([N+](=O)[O-])ccc2-c2ncccc21	i	-22	-4	7	3	6	4	nt
c1ccc2c(-c3nn4nnnc4c4ccccc34)cccc2c1	i	-8	-10	?	-1	-1	-6	-5
CCc1nc2c(OCc3ccccc3C(=O)OC)cccn2c1N(C)C(=O)c1ccncc1	nt	nt	nt	0	-1	9	nt	-24
CCCCCn1c(=O)c(Cc2ccccc2)c(O)c2ccccc21	i	9	-1	7	3	2	-9	-20
COc1ccc(C(C)(O)c2nc(-c3cccc(C#N)c3)cs2)cc1 (stereo not drawn)	nt	nt	nt	-37	5	-8	nt	1
COCc1cc(C)nc(OCC(=O)N/N=C/c2ccc(-c3cc([N+](=O)[O-])ccc3C)o2)c1C#N	i	-7	2	64*	12	-3	20	-10
COc1ccccc1/C=C/C(=O)NC(=S)N1CCN(C)CC1	i	0	-6	-9	-7	-2	-6	-21
Cc1ccc(C2CC(c3cccs3)=NN2C(=O)CSc2nc(=O)n3ccc(C)cc3n2)cc1 (stereo not drawn)	i	6	nt	-14	-5	-5	nt	-12
O=C(Nc1ccc(Cl)c(Cl)c1)c1ccc(Cn2cc(Cl)cn2)cc1	i	nt	-10	-23	1	-10	-1	-19
O=C1OCCC1Sc1nnc(-c2ccc(Br)cc2)o1 (stereo not drawn)	i	-12	1	nt	5	7	-15	-22
CCOc1ccc(/C=C2/C(=N)N3OC(C)=CC3=NC2=O)cc1OC	i	-2	-3	-20	2	5	2	-9
CC(C)Oc1cccc(C(=O)Nc2ccc(NC(=O)c3ccco3)cc2)c1	i	-21	4	nt	5	1	24	-16
COc1ccc(-c2ccc(CN3C(C(C)C)C(=O)N(Cc4cn(CCC5OCCCO5)nn4)CCS3(=O)=O)cc2)cc1OC (stereo not drawn)	nt	nt	nt	3	-2	1	nt	-8
COC(=O)c1ccc2c(=O)n(-c3ccccc3)c(=S)[nH]c2c1	i	nt	-8	-29	7	-8	3	nt
CCc1ccc(CNC(=O)C2CCN(S(=O)(=O)N3CCCCC3)CC2)cc1	nt	nt	nt	43	-6	0	nt	-6
O=C(NCCc1ccccc1)C1CCCN1S(=O)(=O)c1ccccc1 (stereo not drawn)	i	-3	2	0	0	-1	-6	-10
O=C(COC(=O)c1cccc(OC(F)F)c1)Nc1cc(S(=O)(=O)N2CCCC2)ccc1Cl	nt	nt	nt	-8	0	3	nt	-16
CC(C)C(=O)N1CCC(c2nc(-c3ccc(S(=O)(=O)N4CCCC4)cc3)no2)CC1	i	2	-5	nt	-1	-1	-2	-18
CCC(C)n1c(=N)c(C#N)cc2c(=O)n3ccccc3nc21 (stereo not drawn)	i	25	0	nt	0	6	-2	-16
O=C(CSc1nnc(NC(=O)C2CC(=O)N(c3ccc(F)cc3)C2)s1)NC1CCCC1 (stereo not drawn)	i	-5	8	-3	0	4	9	1
S=C(NCCc1cccc(Cl)c1)NC1CCCCC1	i	-5	4	-45	-7	-3	14	-36
CCc1ccc(CNc2ccc3c(c2)ncn3CC)cc1	i	1	-8	-34	0	-6	0	-20
CCOC(=O)N1CCN(c2nc3c(C)cccn3c(=O)c2C=O)CC1	i	-8	9	22	-6	-2	3	-9
CN1CCC(N(C)C(=O)c2ccccc2F)CC1	i	-9	9	15	-8	4	-1	0
Cc1sc2ncnc(SCC(=O)NC(=O)c3cccn3C)c2c1C	i	8	2	23	3	-2	-8	nt

From PubChem BioAssay
